eIF4H FP inh – human eIF4H binding inhibitors, primary screen, translation initiation inhibitor project, biochemical, uHTS, fluorescence polarization. Eukaryotic translation initiation factor 4H (Homo sapiens), Q15056. eIF4H fluorescence polarization binding assay. inhibition, % at 35 µM. hit rate 0.94% among 290,000;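 active = 50% or more with normal probe brightness, or confirmed in later tests; inconclusive = above 50% with abnormal brightness, or retests that disagree; inactive = below 50% or failed in later tests; about a fifth of its hits are not listed in these tables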;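 also: calls also rest on retests at 20 µM and on dose response follow-up; 0% = protein and probe with vehicle and 100% = probe without protein; strong numbers were not always called active; many hits fall short of the cut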
PABP FP inh – PABP poly(A) RNA binding inhibitors, primary screen, biochemical, fluorescence polarization, uHTS | hit rate 1% among 290,000 | Polyadenylate-binding protein 1 (Homo sapiens), P11940 | AID 2014, 2009 | inhibition, % at 35 µM;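 active = 50% or more with normal probe brightness, or confirmed in later tests; inconclusive = above 50% with abnormal brightness, or retests that disagree; inactive = below 50% or failed in later tests; about a fifth of its hits are not listed in these tables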;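 also: calls also rest on retests at 20 µM and on dose response follow-up; controls were probe without protein and protein plus probe with vehicle; some compounds called inactive have numbers as strong as hits; many hits fall short of the cut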
Target sequence (P11940 whole entry, looked up): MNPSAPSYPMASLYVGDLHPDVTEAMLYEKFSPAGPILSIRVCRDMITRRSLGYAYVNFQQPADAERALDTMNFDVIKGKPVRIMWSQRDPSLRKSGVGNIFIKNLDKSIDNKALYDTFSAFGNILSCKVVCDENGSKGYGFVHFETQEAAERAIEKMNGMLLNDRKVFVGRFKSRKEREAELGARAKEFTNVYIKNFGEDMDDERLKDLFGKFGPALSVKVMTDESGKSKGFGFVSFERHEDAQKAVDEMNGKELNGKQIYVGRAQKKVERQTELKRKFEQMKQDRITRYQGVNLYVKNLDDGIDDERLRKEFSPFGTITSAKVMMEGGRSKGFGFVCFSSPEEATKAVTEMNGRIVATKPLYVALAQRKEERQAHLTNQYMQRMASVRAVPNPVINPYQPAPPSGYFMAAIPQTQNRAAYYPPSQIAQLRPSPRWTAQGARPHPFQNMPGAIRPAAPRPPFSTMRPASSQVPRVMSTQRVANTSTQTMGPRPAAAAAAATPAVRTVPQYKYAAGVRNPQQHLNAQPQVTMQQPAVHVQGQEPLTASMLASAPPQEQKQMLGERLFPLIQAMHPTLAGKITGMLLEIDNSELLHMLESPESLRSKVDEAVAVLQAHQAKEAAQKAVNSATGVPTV
CSC inhib – cancer stem cell viability inhibitors, primary screen, luminescence | inhibition, % at 7.5 µM | hit rate 1.1% among 300,000 | cancer stem cell-like cells viability;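 active = mean at 75% or more and at least half the replicates too; inconclusive = mean and replicates disagree; tested in HMLE shEcad cells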;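 also: 0% = median of negative and 100% = median of positive control wells; the first replicate is given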
Rce1 inhib – yeast Rce1p protease inhibitors, primary screen, biochemical, fluorescence, cell-free homogeneous | CAAX prenyl protease 2 (Saccharomyces cerevisiae (strain ATCC 204508 / S288c)), Q03530 | yeast membranes, quenched prenylated peptide cleavage fluorescence | calls only | hit rate 0.27% among 290,000 | AID 2563, 2010;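 active = fall in fluorescence gain of 50% or more versus controls, with final raw signal at or below 3038400; inconclusive = same 50% fall but final raw signal above 3038400; inactive = fall in fluorescence gain under 50%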;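 also: plate controls were neutral control wells for no effect and wells lacking membranes for full effect; tested at 10 µM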
MT1-MMP act inh – blockers of MT1-MMP proenzyme processing, primary screen, HT1080 RFP-PRO-GFP cells, GFP/RFP fluorescence; Matrix metalloproteinase-14 (Homo sapiens), P50281; GFP/RFP ratio fluorescence, overnight; percent of plate control window, DMSO zero; hit rate 0.061% among 360,000; AID 651647, 2012; GFP/RFP ratio change, % at 20 µM;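 active = GFP/RFP ratio change of at least 30% with cell ATP level not reduced by more than half and red fluorescence within 50% of control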; also: strong numbers were not always called active
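Assay system: HT1080 cells carrying an RFP-PRO-GFP reporter | Dosing: Single dose of 20 µM compound, 1% DMSO final | Incubation: Cells overnight before dosing, compound overnight, 37 °C, 5% CO2 | Evaluation: GFP/RFP fluorescence ratio | Control set: DMSO and RFP-L50D-GFP cell wells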
HIV Env fusion – inhibitors of HIV-1 Env-driven cell-cell fusion, primary screen, HeLa-JRFL effector, CEM21 target cells, luciferase | inhibition, % at 12.3 µM | hit rate 1.1% among 360,000 | AID 651610, 2012;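 active = mean replicate inhibition score of at least 50 and every replicate individually at or above 50; inconclusive = only one of the two criteria met; inactive = mean below 50 and not all replicates reaching 50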;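 also: 0% = plate neutral controls and 100% = maraviroc near 300 nM; one replicate is shown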
UUG fidelity – modulators of yeast start codon fidelity, primary screen, whole organism, S. cerevisiae, single point, plate reader. hit rate 0.13% among 350,000. activity score, % at 18.7 µM. S. cerevisiae UUG-firefly luciferase reporter, luminescence/redox ratio. AID 602363, 2012;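 active = replicate mean at a twofold rise or more, about +100% in these data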;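 also: firefly luciferase made from a UUG start codon reports start codon fidelity; reporter light over untreated wells divided by growth signal over untreated wells; some hits fall short of that in this replicate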
MT1-MMP act inh RFP – recorded beside MT1-MMP act inh, whose call it bears; RFP signal change, %; measured here: RFP expression control read;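 0 = vehicle wells; hits needed this value within 50% of zero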
* hit, by the source's call; i = inactive; ? = inconclusive; · = no result given; & = joins results of further samples; [ ] = another dose, or the depositor's remark.

Fields: eIF4H FP inh, PABP FP inh, CSC inhib, Rce1 inhib, MT1-MMP act inh, MT1-MMP act inh RFP, HIV Env fusion, UUG fidelity
CCCN(CC(=O)Nc1ccccc1C)C(=O)CSc1ccccc1C
    ·, ·, -10, ·, -3, -2, ·, -8
COc1ccc(CCNC(=O)c2ccc(S(=O)(=O)N3CCCCC3)cc2)cc1
    ·, ·, ·, ·, 4, 0, -5, 11
O=C(Nc1cccc(-c2cnc3ccccc3n2)c1)C1CC(=O)N(c2ccccc2)C1 (stereo unspecified)
    -2, -9, -3, i, 8, -6, -9, -10
O=C(Nc1cccc(C(=O)N2CCOCC2)c1)c1ccccc1Cl
    12, -5, -8, i, 1, 7, ·, -11
Cc1c(NC(=O)COc2ccc3ccc(=O)oc3c2)c(=O)n(-c2ccccc2)n1C
    ·, ·, ·, i, 0, 1, -7, ·
CCS(=O)(=O)N1CCN(C(=O)C(c2ccccc2)c2ccccc2)CC1
    -5, -1, 7, i, 1, 5, 19, 4
C=CCn1cc(-c2ccc(Cl)cc2)cc(C#N)c1=O
    -6, -6, -7, i, 2, 6, ·, 4
CC1CCN(S(=O)(=O)c2ccc3c(c2)N(CC(=O)NCCCN2CC(C)CC(C)C2)C(=O)CS3)CC1 (stereo unspecified)
    ·, ·, -14, i, 0, 1, 19, 9
Cc1onc(-c2c(F)cccc2Cl)c1C(=O)c1ccc(F)cc1
    0, 8, -12, i, 5, 1, 12, 3
O=C(NC1=NCCS1)C1CC(=O)N(c2ccccc2)C1 (stereo unspecified)
    -6, 0, ·, i, 2, -1, -35, -4
Cn1cc(S(=O)(=O)N2CCC3(CC2)OCCO3)c(=O)n(C)c1=O
    0, 9, -8, i, 0, 5, -84, 4
Cn1c(N)c(C(=O)COC(=O)c2ccc(OC(F)F)cc2)c(=O)n(C)c1=O
    ·, ·, -4, ·, 4, -4, ·, -19
Cc1c(Cl)c([N+](=O)[O-])nn1CCCC(=O)Nc1cccnc1
    4, -5, -12, i, 3, 2, 3, ·
COc1ccccc1OCCSc1nc(N)cc(N)n1
    1, -5, -8, i, -1, -1, -11, -18
CCn1c(SCC(=O)NNC(=O)c2ccco2)nnc1-c1ccco1
    2, -9, 10, i, -3, 1, 5, 0
O=C(NCCN1CCN(C(=O)NC2CCCCC2)CC1)NC1CCCCC1
    6, -4, 1, i, -2, 0, ·, 1
Cc1ccc(C)c(-n2c(SCC(=O)N3CCCC3)nnc2-c2ccccn2)c1
    0, -1, -15, i, 2, 1, ·, 0
O=C(Oc1ccc2ccc(=O)oc2c1)C1CCCCC1
    -8, 4, 0, i, 0, 0, ·, ·
CN1OC[C@@H]2CN(Cc3ccccc3)[C@H](c3cccc(N4CCOCC4)c3)C[C@@H]21
    ·, ·, ·, ·, 2, 0, -21, -4
COc1cc(C(=O)OCC(=O)Nc2ccc(F)cc2F)cc(OC)c1OC
    72*, 84*, -11, i, 1, -2, -30, -13
CCN(CC)C(=O)C[n+]1cccc(/C=N/O)c1
    11, -8, -5, i, 6, 7, 12, ·
COCCNC(=O)c1cc(S(=O)(=O)N(C)c2ccccc2OC)ccc1C
    1, 0, -9, i, -1, 3, 6, ·
Cc1ccc(N(CC(=O)Nc2c(C)cccc2C)S(C)(=O)=O)cc1
    -11, 5, -3, i, -3, 1, 12, 2
COc1ccc(C(CNC(=O)c2ccc(-c3nc4ccccc4s3)o2)N2CCCC2)cc1 (stereo unspecified)
    ·, ·, 0, ·, 0, 2, -3, -15
CN1CCN(c2ccc(CNC(=O)c3ccc(-c4cnn(C)c4)c4ccoc34)cc2)CC1
    ·, ·, ·, ·, -2, 2, -113, -12
O=C(COCC(=O)Nc1cccc(C(F)(F)F)c1)Nc1cccc(C(F)(F)F)c1
    1, 4, 77*, i, 13, 6, ?, 3
Cn1c2c(c(=O)n(C)c1=O)C(NC(=O)c1cccs1)(C(F)(F)F)C(=O)N2 (stereo unspecified)
    -3, 9, ·, ·, 0, 2, -7, -20
COc1ccc(N(C(C)=O)c2nc3ccccc3[nH]2)cc1
    8, 1, -10, i, 0, -2, 3, -7
CCOC(=O)Cc1nnc(NC(=O)C(CC)Sc2nc(C)cc(=O)[nH]2)s1 (stereo unspecified)
    4, -2, -5, i, 0, 7, 16, 11
O=C(NC(N1CCOCC1)C(Cl)(Cl)Cl)c1ccco1 (stereo unspecified)
    -5, 7, 12, i, 1, 7, 18, ·
Cc1ccc(-c2nc3ccc(Cl)cn3c2CC2CCCCC2)cc1
    ·, ·, ·, ·, 1, -2, -179, -32
Cc1[nH]c2ccccc2c1-c1csc(NC(=O)CSCCO)n1
    3, -11, ·, i, 3, 2, 12, ·
Cc1cc(NC(=O)NCC(F)(F)F)no1
    -15, -4, 0, i, 3, 2, -10, 2
CC1CCN(C(=S)c2ccc(-c3ccc(Cl)cc3Cl)o2)CC1
    -5, -6, 73, i, 0, 0, 11, ·
CC(=O)NS(=O)(=O)c1ccc(NC(=O)c2ccc3c(c2)OCO3)cc1
    -6, 12, ·, i, 1, 0, 14, -9
O=C(NCc1ccccc1)C1=C[C@H](c2ccc(C(F)(F)F)cc2)C[C@H](OCCCCO)O1
    ·, ·, -30, i, 1, -3, 7[16.7 µM], -16&-25
CCN(C(=O)CSc1nnc(SC)s1)c1c(N)n(Cc2ccccc2)c(=O)[nH]c1=O
    ·, ·, -23, ·, -2, 0, ·, 7
COc1nc(NCc2cccnc2)nc(NC2CCCCC2)n1
    4, -3, ·, i, -1, 1, -5, ·
CCOc1ccc2ccccc2c1CNc1nnnn1C
    5, 7, -4, i, 4, 3, 7, -15
O=C(N/N=C/c1ccccn1)c1ccc(S(=O)(=O)N2CCCCCC2)cc1
    -15, -10, 15, i, -3, 2, 25, ·
COc1cc(SC#N)ccc1N=Cc1c(C)[nH]n(-c2ccc(C)c(C)c2)c1=O
    3, 22, 97*, i, -11, -21, -29, -3
Cc1ccc(CCNS(=O)(=O)c2ccc3c(c2)C(C)(C)C(=O)N3C)cc1
    -8, -3, 5, i, 0, 3, ·, -3
O=C1CSC(c2ccccc2)N1CC12CC3CC(CC(O)(C3)C1)C2 (stereo unspecified)
    1, -7, -15, ·, 4, 0, -7, ·
CC(C)(C)S(=O)(=O)N1C[C@@H]2CC/C=C\C/C(c3ccccc3)=C\2[C@H]1CCO
    ·, ·, ·, ·, -5, -1, -63, -7
COc1cc(/C=C/C(=O)OCC(=O)NCc2cccs2)ccc1OC(F)F
    1, 8, 5, i, -2, 3, 3, ·

A portion of the results above:
Fields: eIF4H FP inh, PABP FP inh, CSC inhib, Rce1 inhib, MT1-MMP act inh, MT1-MMP act inh RFP, HIV Env fusion, UUG fidelity
Cc1ccc(-c2nc3ccc(Cl)cn3c2CC2CCCCC2)cc1
    ·, ·, ·, ·, 1, -2, -179, -32
Cc1[nH]c2ccccc2c1-c1csc(NC(=O)CSCCO)n1
    3, -11, ·, i, 3, 2, 12, ·

Next structures follow.
Fields: eIF4H FP inh, PABP FP inh, CSC inhib, Rce1 inhib, MT1-MMP act inh, MT1-MMP act inh RFP, HIV Env fusion, UUG fidelity
COc1cc(OC)c2ccc(=O)oc2c1C(CC(=O)N1CCCC1)c1ccc(N(C)C)cc1 (stereo unspecified)
    -6, -11, -5, i, -2, 5, -35, -6
COCCNC(=S)NC(=O)CC12CC3CC(CC(C3)C1)C2
    2, 2, 42, i, -5, -4, 17, ·
O=C(CSc1nc2c(c(=O)n1-c1ccc(Cl)cc1)SCC2)NCc1ccco1
    4, 1, 10, i, 3, 9, -14, -11
Cn1c(/C=C/c2ccc(Cl)cc2)nc2ccccc2c1=O
    1, 0, 9, i, 1, 1, -21, -13
COc1ccc(NC(=O)CSc2ccc(-c3ccccn3)nn2)cc1OC
    -1, -10, -10, i, 5, 5, ·, -33
CCC(CC)CN1CCC(CN2C(=O)C(=O)NC[C@@H]2[C@@H](C)CC)CC1
    ·, ·, ·, ·, 4, 7, -7, -15
Clc1ccc(-c2nnc(SCc3ccon3)o2)c(Cl)c1
    -2, 8, 6, i, 2, -1, ·, -47
CC1=C(C(=O)N(C)C)C(c2ccc(Cl)c(Cl)c2)NC(=O)N1 (stereo unspecified)
    1, 16, -7, i, -8, 0, ·, -8
CCOc1ccc(C2=C/C(=C/c3cccnc3)C(=O)O2)cc1
    11, -2, -8, i, -5, 1, -32, 4
COc1cccc(NC(=O)C(Cc2ccccc2)NC(=O)C2CCC(C)CC2)c1 (stereo unspecified)
    15, -2, 1, i, -33, -21, -67, -5
CCn1c(SCc2ccccc2F)nnc1-c1ccncc1
    -6, -3, -14, i, -2, 1, 8, ·
O=C(COc1ccc(Cl)cc1)NCc1ccccc1
    6, 4, -10, i, 1, -1, -13, -3
CC(=O)c1cc(C#N)c(SCCC(C)C)nc1C
    -4, 4, 21, i, 0, 0, ·, -7
O=[N+]([O-])c1cc(Cl)ccc1Sc1cccc2cccnc12
    1, -11, -3, i, 0, 1, ·, -17
CN(C)C(=O)COC(=O)c1cc(Cl)cc(Cl)c1N
    -9, 7, -6, i, 0, 4, -59, -1
O=C(Oc1cc(Cl)ccc1Cl)C1=CC=CN2CCS(=O)(=O)N=C12
    ·, ·, -14, ·, 5, 5, 3, -11
Cc1[nH]c2ccc(-c3nnc(SCC(=O)c4ccc(F)cc4)o3)cc2c1C
    -6, 4, ·, i, 4, 2, ·, -9
Cn1nc(C(=O)OCC(=O)NCc2ccc(Cl)cc2)c2ccccc2c1=O
    ·, ·, 10, ·, -3, -1, 5, -20
CCC[C@H](CN[C@@H](CNC)[C@H](C)O)NCCc1ccc(OC)cc1
    0, 0, 11, i, 5, 0, 10, -20
COc1cccc(C(NC(C)=O)c2nc(-c3cccc4cccnc34)cs2)c1 (stereo unspecified)
    ·, ·, ·, ·, 1, 1, -4, -43
CN(CCOc1ccccc1)CC(=O)Nc1ccc(S(=O)(=O)N2CCCC2)cc1
    -4, -1, -4, i, -1, -5, 6, -14
CC(=O)N1CCN(c2cc(N3CCCC3)c(F)cc2[N+](=O)[O-])CC1
    1, -3, 5, i, 5, -3, 1, 0
CCC(C)N1C(=O)CCC1C(=O)N1CCN(c2ccc(F)cc2)CC1 (stereo unspecified)
    6, 2, -7, i, -3, 0, 18, -7
CCCOc1ccc(C(F)(F)F)cc1NC(=O)CCc1c(C)noc1C
    ·, ·, ·, ·, 8, -4, 98*, -6

3 compounds picked at random from the list so far:
Fields: eIF4H FP inh, PABP FP inh, CSC inhib, Rce1 inhib, MT1-MMP act inh, MT1-MMP act inh RFP, HIV Env fusion, UUG fidelity
Cc1[nH]c2ccc(-c3nnc(SCC(=O)c4ccc(F)cc4)o3)cc2c1C
    -6, 4, ·, i, 4, 2, ·, -9
CCC(C)N1C(=O)CCC1C(=O)N1CCN(c2ccc(F)cc2)CC1 (stereo unspecified)
    6, 2, -7, i, -3, 0, 18, -7
CN(CCOc1ccccc1)CC(=O)Nc1ccc(S(=O)(=O)N2CCCC2)cc1
    -4, -1, -4, i, -1, -5, 6, -14
